Screening data: PubChem, National Center for Advancing Translational Sciences (NCATS)
Cruzain inh noDet: blocks cruzain activity in detergent-free assay; 200,000 compounds, 2.3% hits; purified cruzain, Z-FR-AMC fluorescence, no detergent; P25779; Potency, µM, without a hit: max response, negative = inhibition, hits mostly inhibitors;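 also: plate controls were enzyme without inhibitor for no effect and buffer without enzyme for full effect; nearly all actives have a fitted effect of over 40% in size; top concentration of the series not given in the record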
Target sequence (P25779 123-467 limits assumed): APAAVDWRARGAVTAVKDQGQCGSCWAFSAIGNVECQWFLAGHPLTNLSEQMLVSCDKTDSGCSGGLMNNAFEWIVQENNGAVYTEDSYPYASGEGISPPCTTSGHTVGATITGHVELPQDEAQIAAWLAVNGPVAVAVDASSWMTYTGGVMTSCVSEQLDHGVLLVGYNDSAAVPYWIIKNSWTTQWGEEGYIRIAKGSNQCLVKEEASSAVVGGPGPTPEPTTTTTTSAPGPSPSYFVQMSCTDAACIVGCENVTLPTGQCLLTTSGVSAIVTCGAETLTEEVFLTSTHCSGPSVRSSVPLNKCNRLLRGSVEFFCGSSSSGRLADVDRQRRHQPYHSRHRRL
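Detergent-free condition (0.00005% Triton X-100) in acetate buffer pH 5.5 with DTT. 1.5 nM enzyme and compound were pre-mixed 15 min, then 2 uM Z-FR-AMC substrate added; reaction progress from fluorescence change between first and third reads (60 s).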
Marburg entry inh: Marburg virus entry inhibition. Marburg virus pseudotyped entry inhibition, cell reporter; control for the full effect not named in the record; about a third of the inactives were read at about 46 µM. Potency, µM (top dose mostly 37.8 µM), without a hit: at the highest dose activity change, negative = inhibition, hits mostly inhibitors. 300,000 compounds, 1.8% hits; active = well fitted inhibition curve with a large enough effect; inconclusive = small, poorly fitted or top-dose-only effect, or effect the other way; inactive = flat fitted curve, though single readings scatter; tested in HEK293 cells; about a fifth of its hits are not listed in these tables; also: % is scaled to controls: 0 for no effect and ±100 for the full control effect; luciferase read-out
Cruzain Triton: blocks cruzain activity in presence of Triton detergent. Potency, µM, without a hit: max response, negative = inhibition, hits mostly inhibitors. 200,000 compounds, 0.43% hits. P25779. purified cruzain, Z-FR-AMC fluorescence, 0.01% Triton;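 also: plate controls were neutral wells for no effect and buffer without enzyme for full effect; nearly all actives have a fitted effect of over 40% in size; top concentration of the series not given in the record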
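Enzyme 1.5 nM, Z-FR-AMC 2 uM, NaOAc 100 mM pH 5.5, DTT 5 mM, Triton X-100 0.01%; 15 min RT compound preincubation; kinetic ex360/em450, 60 s delta.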
Lassa entry inh: blocks Lassa virus binding to or entry into cells | Lassa virus pseudotype entry inhibition, cell reporter; control for the full effect not named in the record | Potency, µM (doses to about 37.9 µM), inactives show at the top dose activity change, negative = inhibition, most hits filed as inhibitors | 300,000 compounds, 1.2% hits; active means well fitted inhibition curve with a large enough effect; inconclusive means small, poorly fitted or top-dose-only effect, or effect the other way; inactive means flat fitted curve, though single readings scatter; tested in HEK293 cells; also: % is scaled to controls: 0 for no effect and ±100 for the full control effect; nearly all actives have a fitted effect of over 50% in size; luciferase read-out
RE007 growth inh: less growth of the S. pombe RE007 Vpr strain | S. pombe RE007 Vpr strain, BacTiter-Glo ATP luminescence, 24 h; control for the full effect not named in the record | Potency, µM (doses to about 92.2 µM), for the others: top-dose activity change, negative = less growth | 360,000 compounds, 0.21% hits | AID 651644; active = well fitted falling curve with a large enough effect; inconclusive = small, poorly fitted or top-dose-only effect; inactive = no such curve, though single readings can be large or run the other way;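 also: % is scaled to controls: 0 for no effect and ±100 for the full control effect; nearly all actives have a fitted effect of over 50% in size; the assay follows cell death caused by Vpr and the record does not say whether a fall means rescue or toxicity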
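Fission yeast RE007 carrying one integrated HIV-1 vpr copy, seeded at OD 0.01 in PMG+AL medium with 23 nL pinned compound. Grown 24 h at 30 degrees; viability read by BacTiter-Glo luminescence after 5 min.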
NS1 function inh: influenza NS1 inhibition. S. cerevisiae slowed by influenza A NS1, growth recovery by OD600. Potency, µM (series often up to 46.1 µM), for inactives: at the highest dose activity, positive = more growth. 270,000 compounds, 0.4% hits; active means well fitted rising curve with a large enough effect; inconclusive means small, poorly fitted or top-dose-only effect; inactive means no such curve, though single readings can be large or run the other way; also: nearly all actives have a fitted effect of over 50% in size
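Growth recovery, yeast-based: influenza A NS1 expressed in S. cerevisiae causes slow growth, and suppressors are detected by OD600. The parent strain without NS1 is used as positive control.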
SARS PLP yeast: blocks SARS-CoV papain-like protease in a yeast assay. Potency, µM (top dose mostly 32.9 µM), for the others: at the top dose activity, positive = growth rescue. 330,000 compounds, 0.19% hits. S. cerevisiae expressing SARS-CoV PLpro, growth rescue; control for the full effect not named in the record; active means well fitted rising curve with a large enough effect; inconclusive means small, poorly fitted or top-dose-only effect; inactive means no such curve, though single readings can be large or run the other way; also: 0% is about no effect; nearly all actives have a fitted effect of over 55% in size; growth read by luminescence after 48 h
StopGo reporter: lowers the luciferase signal of an FMDV 2A StopGo reporter; human cells with a luciferase reporter of 2A StopGo recoding; control for the full effect not named in the record; Potency, µM (series often up to 57.9 µM), without a hit: at the highest dose signal change, negative = less light; 410,000 compounds, 1.2% hits; active = well fitted falling curve with a large enough effect; inconclusive = small, poorly fitted or top-dose-only effect; inactive = no such curve, though single readings can be large or run the other way; tested in HEK293T cells; also: % is scaled to controls: 0 for no effect and ±100 for the full control effect; nearly all actives have a fitted effect of over 45% in size; luciferase light after 4 h
Numbers without * were called inactive; ? = inconclusive; . = no result given; & = joins results of further samples; [ ] = another dose, or the depositor's remark. Unless noted, calls follow the shape of the dose curve; as a rule, active = well fitted curve in the direction sought with a large enough effect; inconclusive = small, poorly fitted or top-dose-only effect, or another doubt; inactive = no such curve, though single readings can be large; an effect the other way counts as inactive or inconclusive. Potency is read from the fitted curve at half-maximal effect.

SMILES	Cruzain inh noDet	Marburg entry inh	Cruzain Triton	Lassa entry inh	RE007 growth inh	NS1 function inh	SARS PLP yeast	StopGo reporter
O=C(c1cn(CCOc2ccccc2F)c2ccccc12)C1CCCCC1	-7%	3%[46.1 µM]	-7.8%	29%[46.1 µM]	.	.	.	-1%
O=C(NC1CC(=O)N(c2ccc(F)cc2)C1)c1ccc(S(=O)(=O)N2CCCC2)cc1 (stereo not given)	9%	.	-0.4%	-3%[46.1 µM]	.	.	.	-17%
CC(=O)Oc1c(Cl)c(N2CCOCC2)c(OC(C)=O)c2ccccc12	14%	?	-5.7%	7%	-22%	-1%	-9%	-16%
CCc1ccccc1NC(=O)CN(c1ccc(OC)cc1OC)S(=O)(=O)c1ccccc1[N+](=O)[O-]	.	?	.	?	7%	8%	0%	-6%
O=C(Cc1ccc(F)cc1)Nc1ccc(Cl)cn1	.	-13%	.	9%	-19%	-11%	-4%	65%[activator]
Cc1ccc(OC(=O)CCS(=O)(=O)c2ccc(C)cc2)cc1	.	32%	.	-8%	8%	-15%	6%	-13%
CC(C)CNC(=O)c1ccc2c(c1)C(=O)N(C1CCCCC1)C2=O	.	?	.	-2%	9%	-4%	15%	8%
O=C(CCNC(=O)c1ccccc1)Nc1ccc(F)c(Cl)c1	-6%	.	0.3%	.	13%	7%	-1%	6%
O=C1CCC(C(=O)N(c2ccccc2)C2(C(=O)NC3CCCCC3)CCCCC2)N1 (stereo not given)	-3%	-8%[46.1 µM]	3.5%	-3%	-2%	-3%	-2%	-1%
COc1ccc(-c2[nH]ncc2CN(C)Cc2cnccn2)c(OC)c1	.	-20%	.	14%	-1%	4%	0%	-9%
COc1ccc(C)cc1NC(=O)CSc1ccc(Cl)cc1	-4%	?	-8.7%	0%	-21%	-10%	-14%	-16%
CCOC(=O)C(NC(C)=O)(Nc1ccc(S(=O)(=O)Nc2nccs2)cc1)C(F)(F)F (stereo not given)	16%	-3%[46.1 µM]	3.5%	?	0%	11%	3%	5%
CC(C)COC(=O)c1ccc2c(c1O)C(=O)c1ccccc1C2=O	2%	?	-5.5%	?	?	-10%	9%	31%[activator]
CCN1CCN(c2ccc(S(=O)(=O)N(CC)CC)cc2[N+](=O)[O-])CC1	-7%	-13%	-1.1%	18%	-1%	12%	10%	0%
COc1cc2c(cc1OC)CN(Cc1cc(=O)n3c(-c4ccccc4)csc3n1)CC2	.	?	.	?	-4%	.	0%	-15%
CC(C)(C)NC(=O)C(c1ccc(F)cc1)N(Cc1ccco1)C(=O)Cn1nnc(-c2cccs2)n1 (stereo not given)	-6%	-5%	-2.1%	0%	-11%	1%	7%	-10%
CCOc1ccccc1NC(=O)CN(c1ccc(OC)cc1)S(=O)(=O)c1c(C)noc1C	9%	?	-2.3%	?	-11%	6%	-21%	-10%
CC(C)CC1NC(=O)N(CC(=O)N2CCN(S(=O)(=O)c3ccc4ccccc4c3)CC2)C1=O (stereo not given)	28%	11%&11%	-4.2%	12%	3%	-17%	7%	-8%
CC(C)(O)CN(C(=O)C(c1ccccc1)c1ccccc1)C1CCCCC1	.	?	.	-11%	10%	.	.	-5%
C=CCn1c(SCC(=O)N2CCCC2)nc2scc(-c3cccs3)c2c1=O	2%	8%	-0.7%	?	-6%	8%	-11%	-26%
Cc1ccccc1N=Cc1c(O)n(-c2nccs2)c(=O)c2ccccc12	-8%	?	-7.7%	?	-8%	18%	20%	-4%
Cc1ccc(C(=O)N2CCCC(Nc3ccc(F)cc3)C2)cc1C (stereo not given)	.	.	.	.	6%	-53%	8%	-30%
COc1ccc(C(=O)NCCSCc2ccc(C)cc2)cc1	-2%	0%	-0.4%	?	-9%	-36%	0%	-17%
Cc1nc(=O)c(-c2ccccc2)c(C)n1Cc1ccccc1	-4%	-5%	4.7%	1%	2%	-8%	-2%	.
CCCc1cc(=O)[nH]c(SC/C=C/c2ccccc2)n1	.	-16%[46.1 µM]	.	-27%[46.1 µM]	-4%	.	.	-17%
CC(=O)COc1ccc2c(c1C)O/C(=C\c1ccco1)C2=O	.	.	.	.	?	-1%	5%	-1%
C=CCNc1nc(Nc2ccc(OC)cc2OC)nc(OCC)n1	-6%	?	-2.2%	-21%	4%	-11%	4%	-24%
COc1ccc(Br)cc1/C=N/NC(=O)c1ccc(COc2ccc3c(c2)CCC3)o1	-26%	?	-10%	23%	12%	13%	1%	24%
CC(=O)N1CCc2c(sc(NC(=O)CS(=O)(=O)c3ccc(F)cc3)c2C#N)C1	.	?	.	?	5%	.	0%	-7%
O=S(=O)(/C=C/c1ccccc1)N1CCN(Cc2ccccc2)CC1	.	-19%[46.1 µM]	.	?	-3%	-1%	1%	0%
O=C(NCc1cccs1)c1cc(S(=O)(=O)N2CCOCC2)ccc1N1CCCC1	.	-11%	.	-8%	-6%	.	5%	-10%
CCn1cc(C(=O)NC(C)C2CC3CCC2C3)cn1 (stereo not given)	5%	-18%	0.7%	-1%	38%	0%	18%	-13%
CCOC(=O)C1(C(=O)OCC)NC(=O)CC1CC(C)C (stereo not given)	.	0%	.	26%	7%	.	.	-16%
COc1ccc(Br)cc1CN1CCN(C(=O)c2ccc(F)cc2)CC1	.	-18%[14.2 µM]	.	5%	-13%	-1%	0%	0%
CCOc1cc(NC(=S)NCCCN2CCOCC2)c(OCC)cc1NC(=O)c1ccccc1C	.	?	.	11%	15%	3%	-1%	-24%
Cc1cccc(N(C(=O)c2snc(C(N)=O)c2N)C(C(=O)NCC2CCCO2)c2cccs2)c1 (stereo not given)	.	?	.	?	1%	0%	-1%	-20%
O=[N+]([O-])c1ccc(N2CCN(c3ccccc3)CC2)nc1	.	?	.	30%[46.1 µM]	0%	4%	2%	-4%
CCc1cccc(CC)c1NC(=O)c1ccc2c(c1)CCN2S(=O)(=O)c1ccccc1	-3%	-12%[46.1 µM]	-1.9%	-5%[46.1 µM]	.	.	.	3%
CCOC(=O)N1CCC(NC(=O)c2cc(C(=O)NCC(OC)OC)ccc2CO)CC1	-3%	28%	4.6%	-8%	2%	6%	2%	-6%
COc1ccc(-c2nc(CSCC(=O)NCCc3ccccc3)c(C)o2)cc1	10%	13%[46.1 µM]	-0.5%	15%[46.1 µM]	.	.	.	-26%
Cc1ccsc1C1C(C#N)=C(N)Oc2n[nH]c(C)c21 (stereo not given)	.	?	.	-4%	-4%	.	2%	32µM*
Cc1cc2nc(C3CCCN(C(=S)Nc4ccccc4C)C3)[nH]c2cc1C (stereo not given)	-10%	-21%	-9.6%	?	8%	7%	-14%	.
Nc1nonc1C(=O)N/N=C/c1ccc(-c2ccc(Cl)c(C(=O)O)c2)o1	.	?	.	19%	-3%	.	-6%	4%
O=C(Cc1ccccc1)NCc1n[nH]c(=S)n1-c1ccc(Br)cc1	.	10%[46.1 µM]	.	3%	-5%	.	0%	-3%
COc1ccc(CNC(=O)C[C@H]2C(=O)N(Cc3ccccc3)C[C@@H]2Cc2ccccc2)cc1	.	.	.	.	-12%	8%	-17%	0%
S=C1SCN(CC2CC2)CN1CC1CC1	.	6%[46.1 µM]	.	-31%[46.1 µM]	?	-37%	3%	-22%
O=C(c1cc(S(=O)(=O)N2CCOCC2)ccc1F)N1CCN(Cc2ccccc2)CC1	3%	-1%	2.8%	-14%	-1%	10%	-6%	0%
Cc1ccc(NC(=O)c2ccc(OC(=O)c3ccco3)cc2)cc1	-11%	0%&0%	-1.5%	7%	-4%	-10%	3%	.
CC(NC(=O)CN1C(=O)COc2ccc(S(=O)(=O)N3CCCCCC3)cc21)c1ccccc1 (stereo not given)	-8%	10%[46.1 µM]	0.7%	1%[46.1 µM]	.	.	.	12%
COc1ccc(C2/C=C\CN(C(=O)Nc3ccccc3)CC(=O)N2Cc2ccc(F)cc2)cc1 (stereo not given)	.	.	.	.	7%	2%	-6%	-10%
COc1ccc(S(=O)(=O)N2CCC(C(=O)NCC3CCCO3)CC2)cc1Cl (stereo not given)	.	?	.	19%[46.1 µM]	-4%	-8%	0%	24%
CC(=O)c1ccc(NC(=O)N[C@@H](Cc2ccccc2)C(=O)O)cc1	-11%	7%	4.8%	?	6%	8%	-2%	.
Cc1ccc(NC(=O)CSc2ccc3c(c2)OCCO3)c(O)c1	.	.	.	.	10%	-14%	-3%	-14%
Cc1nn(Cc2ccc(F)cc2)c(C)c1NC(=O)c1cnn2c1NC(c1ccccc1)CC2C(F)(F)F (stereo not given)	?	1%	-7.1%	-8%	20%	17%	-6%	-8%
CN(C)c1ccc(-n2cccc2/C=C/[N+](=O)[O-])cc1	.	?	.	?	?	.	-15%	?
C=CCn1c(SCC(=O)NC(N)=O)nnc1-c1cc2c(s1)CCC(CC)C2 (stereo not given)	-1%	20%	-2.2%	-28%	12%	0%	-1%	-4%
Cc1ccc(C(=O)C(C)OC(=O)C2CCN(c3ccc(C(F)(F)F)cn3)CC2)cc1 (stereo not given)	.	-15%	.	3%	-4%	.	-1%	?
CCc1ccccc1NC(=O)c1nc2nc(C)cc(C(F)F)n2n1	5%	-18%[46.1 µM]	0.2%	-1%[46.1 µM]	.	.	.	-17%
O=C(O)CCc1ccc(-c2cccs2)n1NC(=O)c1ccc(Cl)cc1	-2%	-4%	-1.0%	?	-10%	?	-2%	.
CNCc1ccccc1Sc1ccc(OC)cc1	-9%	?	-3.8%	?	6%	-2%	-2%	-17%
COc1ccc(-c2ccc(CCC(=O)O)n2-c2ccc(O)cc2)cc1	.	18%[46.1 µM]	.	?	-11%	.	1%	-8%
CC(=O)c1c(C)[nH]c(C(=O)CN2C(=O)NC(C)(c3ccc4c(c3)OCO4)C2=O)c1C (stereo not given)	.	-7%	.	-1%	4%	5%	13%	-18%
Cc1ccc(CNc2ncc(-c3ccccc3)n2C)o1	.	15%	.	-13%	-30%	-4%	-1%	20%

The order is random. About 4.7% of those tested had a hit in this group.
